KCNQ2 enhance – potentiators of rat KCNQ2 potassium channel; Potassium voltage-gated channel subfamily KQT member 2 (Rattus norvegicus), O88943; B-score at 10 µM; AID 2239, 2010; CHO-K1 KCNQ2, FluxOR thallium flux fluorescence; stronger effect = higher value; hit rate 0.54% among 310,000;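 active = fluorescence ratio B-score at least 3 SD of library B-scores, with initial fluorescence B-score within 3 SD, cut at about 5.3 in these data; same plate scores as AID 2156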;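 also: B-score of peak minus minimum over baseline fluorescence ratio after K+ and Tl+ stimulus; positive B-score means potentiation of KCNQ2 with more thallium influx and brighter signal; only the inactives scoring about 0 or higher are listed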
Target sequence (O88943 whole entry, looked up): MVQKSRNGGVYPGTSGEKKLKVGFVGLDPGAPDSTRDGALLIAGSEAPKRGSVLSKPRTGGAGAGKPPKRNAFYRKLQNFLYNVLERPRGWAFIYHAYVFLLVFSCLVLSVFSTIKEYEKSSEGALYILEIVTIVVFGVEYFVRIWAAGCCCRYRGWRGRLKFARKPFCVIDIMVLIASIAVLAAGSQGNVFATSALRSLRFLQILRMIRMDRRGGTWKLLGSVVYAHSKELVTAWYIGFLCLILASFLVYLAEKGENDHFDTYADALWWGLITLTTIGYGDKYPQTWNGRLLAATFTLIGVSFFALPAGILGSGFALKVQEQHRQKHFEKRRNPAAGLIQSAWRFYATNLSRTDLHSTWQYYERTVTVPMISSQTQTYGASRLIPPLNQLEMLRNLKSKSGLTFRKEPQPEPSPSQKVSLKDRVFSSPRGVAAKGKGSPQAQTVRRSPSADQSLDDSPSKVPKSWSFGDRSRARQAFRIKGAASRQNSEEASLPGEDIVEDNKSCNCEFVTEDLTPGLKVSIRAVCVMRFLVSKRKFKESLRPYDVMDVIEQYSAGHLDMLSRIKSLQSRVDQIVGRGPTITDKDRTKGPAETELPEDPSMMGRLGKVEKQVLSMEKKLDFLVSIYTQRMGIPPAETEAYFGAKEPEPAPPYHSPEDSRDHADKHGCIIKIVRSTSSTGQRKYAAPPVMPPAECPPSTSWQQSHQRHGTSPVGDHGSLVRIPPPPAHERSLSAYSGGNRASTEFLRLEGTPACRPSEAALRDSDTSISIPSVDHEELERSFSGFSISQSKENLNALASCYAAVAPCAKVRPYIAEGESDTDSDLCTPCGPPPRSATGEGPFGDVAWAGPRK
KCNQ2 enhance baseline – also measured in KCNQ2 enhance; calls as there; B-score; compound at 10 µM; measured here: initial fluorescence intensity artifact check;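 brightness before thallium and not channel activity; 0 = typical well and far values either way flag optical interference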
Active calls of the source: *; x = not tested or not shown. The list is partial; the hit share may differ from the screen's.

SMILES	KCNQ2 enhance	KCNQ2 enhance baseline
CC(=O)N/C(=C/c1cccnc1)C(=O)Nc1ccc(Cl)cc1	0.01	1.34
CC1(C)CC(=O)c2c(oc3ccc(NS(=O)(=O)c4cccc5cccnc45)cc23)C1	0.36	-1.49
O=C(c1cncc(Br)c1)N1CCN(S(=O)(=O)c2ccccc2C(F)(F)F)CC1	0.43	-1.52
COc1ccccc1OCc1ccc(C(=O)NCc2cccnc2)o1	0.3	1.07
CCOc1ccc(N2C(=O)C(Cl)=C(Nc3ccccc3O)C2=O)cc1	0.23	2.22
NC(=O)C1(S(=O)(=O)c2ccccc2)CCCCC1	0.73	0
CCn1c(SCC(=O)NC(C)C)nnc1-c1cccs1	0.93	-1.01
CCN(CC(=O)NC(=O)NCc1ccccc1)Cc1nc2ccccc2c(=O)[nH]1	7.86*	-0.16*
Cc1cc(C)cc(NC(=S)NCc2ccc(F)cc2)c1	0.66	-0.96
Cc1ccc(SCC(=O)OCC(=O)NCCNC(=O)COC(=O)CSc2ccc(C)c(C)c2)cc1C	1.81	0.09
CC(NC(=O)CSc1ccccc1)c1ccccc1 (centres undefined)	0.77	0.59
COc1ccccc1NC(=O)NCc1ccc2c(c1)OCO2	0.73	0.72
Cc1ccnc(NS(=O)(=O)c2ccc(NC(=O)c3ccc(N4C(=O)CCC4=O)cc3)cc2)n1	0.33	-2.18
CCOc1ccc(-n2c(C)nc3cc(C(=O)NCC4CCCO4)ccc32)cc1 (centres undefined)	0.6	0.25
COc1cccc(C(C(=O)NC(C)(C)C)N(CCc2ccccc2)C(=O)CCC(=O)Nc2cc(C)on2)c1OC (centres undefined)	0.63	0.62
CCOC(=O)C1=C(COC(=O)COc2cc(C)ccc2C)NC(=O)NC1C (centres undefined)	1.63	-1.51
COC(=O)c1c(NC(=O)c2ccc(C)o2)sc2c1CCCCC2	1.36	-1.6
COc1ccc(C(CNC(=O)c2ccccc2SC)N(C)C)cc1 (centres undefined)	0.31	-2.19
COc1ccc(C(=O)Oc2ccc(-c3nnco3)cc2)cc1S(=O)(=O)N1CCOCC1	0.39	-1.38
Cc1ccc(OCCC(=O)Nc2ccccc2C(=O)N2CCCCC2)cc1	0.31	0.97
Cc1cc(Cl)ccc1NC(=S)NCC(C)C	1.26	0.09
Cc1cc(=O)oc(C)c1C(=O)N1CCCc2ccccc21	0.06	0.63
N#Cc1c(C#N)c(-c2ccccc2)n(-c2ccc(C(=O)O)cc2)c1N	0.68	0.83
Cc1ccc2nc(SCC(=O)NCc3ccc(F)cc3)nc(=O)n2c1	0.49	-1.07
COc1cccc(C2=NOC(C(=O)Nc3cc(OC)c(OC)c(OC)c3)C2)c1 (centres undefined)	0.37	-0.39

Carrying on.
SMILES	KCNQ2 enhance	KCNQ2 enhance baseline
CCC1(CC)Nc2ccccc2C(=O)N1c1ccc(OC)cc1	0.81	-2.13
COc1ccc(-n2c(SCC(C)=O)nc3sc(C)c(C)c3c2=O)cc1	0.82	-1.87
COC(=O)c1ccsc1-n1cc(C#N)c(=O)n(C)c1=O	1.96	1.82
COc1ccc(-c2coc3cc(O)cc(O)c3c2=O)cc1OC	1.28	-0.37
NC(=O)c1ccc(N=C2C(=O)Nc3ccc([N+](=O)[O-])cc32)cc1	0.71	-1.41
O=C(NC1CCCCC1)C1CCN(S(=O)(=O)c2cccs2)CC1	1.48	0.61
Cc1nc([N+](=O)[O-])c(C(=O)OCc2cccc(Br)c2)n1C	0.21	1.38
CCCc1ccc(OCc2ccc(C(=O)N/N=C/c3cccnc3)o2)cc1	0.67	0.62
COc1ccccc1-c1noc(CCC(=O)Nc2cc(C(F)(F)F)ccc2Cl)n1	0.52	1.63
Cc1cc(NC(=O)CSc2nc3ccsc3c(=O)n2CCCCC(=O)O)no1	0.16	-0.36
CCOC(=O)n1c(=O)[nH]c2ccc(Br)cc21	0.03	-2.23
CCOC(=O)c1ccc(-c2cc(C)no2)[nH]1	0.96	0.12
CCc1cc(=O)oc2cc(OS(C)(=O)=O)ccc12	0.41	2.65
CC1(C)CN2C(=S)N(c3ccccc3)C(c3ccccc3)N2C1 (centres undefined)	-5.57	x
COc1ccc2cc(C(=O)Nc3ccc(F)cc3)sc(=O)c2c1OC	0.41	2.15
CCN(Cc1nc(-c2ccc(OC)c(OC)c2)no1)C(=O)c1ccc2c(c1)OCO2	1.06	-0.34
CCc1nc(N)c(C#N)c(-c2ccco2)c1C	0.94	-0.34
COc1ccc(CCn2c(C)nc3c(c(=O)c4ccccc4n3C)c2=O)cc1	0.51	0.31
Cn1c(C(=O)NCCN2CCOCC2)cc2c(=O)n(C)c3ccccc3c21	2.17	0.02
O=c1cc(-c2ccccc2)nc(Sc2ccc([N+](=O)[O-])cc2[N+](=O)[O-])[nH]1	1.36	-1.72
Cc1[nH]nc(SCC(=O)N2CCCCCC2)c1[N+](=O)[O-]	0.64	-2.58
COc1ccccc1Nc1nc(N)nc(CSC(=S)N2CCCCC2C)n1 (centres undefined)	0.31	-1.05
CCC1=C(c2ccc(C)cc2)S(=O)(=O)N=C1N1CCC(C(=O)NCCCN2CCCCC2)CC1	1.42	-0.81
CCCCOC(=O)C1[C@H]2C(=O)N(c3ccccc3CC)C[C@]23C=C[C@H]1O3 (some centres undefined)	0.82	-0.09
O=C(NC(NCCCN1CCOCC1)(C(F)(F)F)C(F)(F)F)C1CCCCC1	0.31	0.59

Other structures:
SMILES	KCNQ2 enhance	KCNQ2 enhance baseline
COc1ccccc1NC(=S)NNC(=O)c1ccccc1	0.81	-0.44
O=C(O)CN1C(=O)/C(=C\c2ccccc2OCc2ccc(F)cc2)SC1=S	0.73	0
CC(C)CCNC(=O)CCCCn1c(=O)[nH]c2ccsc2c1=O	1.69	-0.08
CC1(CC(=O)N/N=C/c2cc3c(cc2Br)OCO3)OCCO1	0.22	-0.92
COc1cc(C(=O)NCCN2CCCC2)cc(OC)c1OC	0.08	-0.02
Cc1ccc(C(CNS(=O)(=O)c2ccc(F)cc2C)N2CCN(C)CC2)cc1 (centres undefined)	0.57	1.97
COc1cccc(C(=O)C2CCCN(C(=O)CCC3=NNC(=O)CC3)C2)c1 (centres undefined)	0.7	-0.09
C/C(=N/NC(=O)CNC(=O)Cc1ccccc1)c1ccc(Cl)cc1	3.4	-2.21
COC(=O)C1=C(N)Oc2c(oc(CO)cc2=O)C1c1c(F)cccc1Cl (centres undefined)	0.26	-0.57
COCCCN1C(=O)c2ccc(C(=O)N3CCN(c4ccc(OC)cc4)CC3)cc2C1=O	0.01	2.22
Cc1ccc(S(=O)(=O)N2CCC(C(=O)N/N=C/c3cccnc3)CC2)cc1	0.01	0.21
COc1cccc(-n2c(=O)c3c(C)c(C(=O)N(C)C)sc3n(CC(=O)NCC3CCCO3)c2=O)c1 (centres undefined)	0.14	2.3
O=C(Nc1ccccc1O)c1ccc2c(c1)C(=O)N(Cc1ccco1)C2=O	0.34	-1.56
Cc1ccnc(NC(=O)c2ccc(Cl)cc2Cl)n1	0.38	-0.03
Cc1ccc(/C=N/NC(=O)c2c[nH]c3ccccc23)s1	0.52	0.78
O=C(O)c1cc(NCc2ccccc2)ccc1N1CCOCC1	0.14	4.14
COc1c(C)cc(S(=O)(=O)NCCN2CCOCC2)c(C)c1C	0.42	2.42
CN(C1CCS(=O)(=O)C1)S(=O)(=O)c1ccccc1 (centres undefined)	0.65	0.22
Cc1ccccc1C(=O)c1c[nH]c(C(=O)NCCc2ccccn2)c1	2.46	1.62
CCOC(=O)C1(Cc2ccccc2)CCN(Cc2cnn(C(C)C)c2)CC1	0.01	-1.09
Cc1ccc(NC(=O)CSc2nnnn2-c2cccnc2)c(C)c1	1.46	1.75
O=C(NC1CCCCC1)c1ccc(CS(=O)Cc2ccccc2Cl)o1 (centres undefined)	0.85	-0.55
Nc1ccccc1S(=O)(=O)C(F)F	0.07	-0.77
COC(=O)C1=C(C)NC(=S)NC1c1ccco1 (centres undefined)	0.73	0.4
COc1c(C)cc(S(=O)(=O)NC2CC(C)(C)NC(C)(C)C2)c(C)c1C	2.12	0.29

Remaining list, next part
SMILES	KCNQ2 enhance	KCNQ2 enhance baseline
Cc1cccc(C(=O)NCc2nnc(SC(C)C(=O)Nc3nnc(C)s3)n2C)c1 (centres undefined)	1.39	-0.52
COc1ccc(/C=N/NC(=O)c2ccc(Cn3cc([N+](=O)[O-])cn3)o2)cc1O	0.09	0.01
COCCOc1cc(N)c(Cl)cc1Cl	2.82	-1.41
O=C(NCc1ccc2c(c1)OCO2)C1CCN(S(=O)(=O)c2cccs2)CC1	1.13	0.08
O=C(NC1CCCC1)C(c1ccncc1)N(C(=O)c1csnn1)C1CCCC1 (centres undefined)	0.25	-1.03
COc1ccc(CNc2nn[nH]n2)cc1OC	1.77	-0.04
COc1ccccc1NC(=O)c1c(Nc2ccccc2F)sc(C(=O)Nc2cccc(Cl)c2)c1N	0.85	1.61
CN(C(=O)c1cc(S(=O)(=O)N2CCc3ccccc32)cn1C)C1CCCCC1	0.03	-1.53
COc1ccc(/C=C/C(=O)NC(=S)N2CCN(c3ccccn3)CC2)cc1OC	2.05	0.04
C=CCNC(=S)NNC(=O)c1cc(Cl)ccc1OC	1.83	-0.34
COC(=O)CN(c1ccc(OC)cc1)S(=O)(=O)c1ccc(OC)c(OC)c1	1.38	-3.58
O=C1NCCN1CCNS(=O)(=O)c1ccc(F)cc1	0.25	0.64
CNC(=S)N1CCN(c2ccccn2)CC1	0.01	1.19
Cc1oc(-c2ccccc2)nc1C(=O)Nc1nccs1	0.49	1.14
COc1ccc(N(C(=O)c2snc(C(N)=O)c2N)C(CC(C)C)C(=O)NCC2CCCO2)cc1 (centres undefined)	0.1	1.17
COc1cc(NC(=O)C2CC(=O)N(Cc3ccco3)C2)cc(OC)c1 (centres undefined)	1.29	0.75
CCCCOc1ccc(C2/C(=C(\O)c3ccc4c(c3)OCCO4)C(=O)C(=O)N2CCCN2CCOCC2)cc1 (centres undefined)	0.94	-0.01
CC(c1ccncn1)N(C)Cc1nc(Cc2ccccc2F)no1 (centres undefined)	0.73	-1.59
COc1ccc(/C=C(/NC(=O)c2ccccc2)C(=O)N2CCOCC2)cc1OC	0.42	-1.48
O=C(NNc1ccccc1[N+](=O)[O-])NC1CCCCC1	1.17	0.63
CNc1nc2cc([N+](=O)[O-])c([N+](=O)[O-])cc2nc1NC	0.66	-0.4
COc1cc(NC(=O)c2ccc3c(c2)S(=O)(=O)N=C2CCCCCN23)cc(OC)c1	1.02	2.22
COc1cc(C(=O)OCCCN=C2NS(=O)(=O)c3ccccc32)cc(OC)c1OC	0.04	2.13
O=C(CCN1C(=O)c2ccccc2C1=O)C1=NN[C@@H]2C(=O)N(c3ccc4c(c3)OCCO4)C(=O)[C@H]12	0.04	-0.42
COc1cccc(-c2csc3nc[nH]c(=O)c23)c1	0.49	0.09

Seven of the compounds above, with values ahead of the structure:
KCNQ2 enhance	KCNQ2 enhance baseline	Compound
0.04	2.13	COc1cc(C(=O)OCCCN=C2NS(=O)(=O)c3ccccc32)cc(OC)c1OC
0.73	-1.59	CC(c1ccncn1)N(C)Cc1nc(Cc2ccccc2F)no1 (centres undefined)
0.66	-0.4	CNc1nc2cc([N+](=O)[O-])c([N+](=O)[O-])cc2nc1NC
0.03	-1.53	CN(C(=O)c1cc(S(=O)(=O)N2CCc3ccccc32)cn1C)C1CCCCC1
2.05	0.04	COc1ccc(/C=C/C(=O)NC(=S)N2CCN(c3ccccn3)CC2)cc1OC
0.49	0.09	COc1cccc(-c2csc3nc[nH]c(=O)c23)c1
0.25	0.64	O=C1NCCN1CCNS(=O)(=O)c1ccc(F)cc1

Gathered by group: the compounds so far containing a COOH group
SMILES	KCNQ2 enhance	KCNQ2 enhance baseline
N#Cc1c(C#N)c(-c2ccccc2)n(-c2ccc(C(=O)O)cc2)c1N	0.68	0.83
Cc1cc(NC(=O)CSc2nc3ccsc3c(=O)n2CCCCC(=O)O)no1	0.16	-0.36
O=C(O)CN1C(=O)/C(=C\c2ccccc2OCc2ccc(F)cc2)SC1=S	0.73	0
O=C(O)c1cc(NCc2ccccc2)ccc1N1CCOCC1	0.14	4.14

(next part)
SMILES	KCNQ2 enhance	KCNQ2 enhance baseline
CN(c1ccc(C(=O)N2CCN(c3ccc(F)cc3)CC2)cc1)S(C)(=O)=O	0.05	-0.37
Cc1cc(C)c(NC(=S)NCCCSC2CCCCC2)c(C)c1	1.84	1.15
CN(Cc1ccc(F)cc1)C(=O)c1cc(COc2ccc(-n3cncn3)cc2)on1	3.24	0.17
O=C(CS(=O)(=O)Cc1ccccc1)N1CCN(Cc2ccc3c(c2)OCO3)CC1	0.66	0.78
COc1cc2[nH]c(=O)n(CCC(=O)N3CCN(Cc4ccc5c(c4)OCO5)CC3)c(=O)c2cc1OC	1.51	-0.99
C=CCSc1nc(O)c(CC)c(=O)n1C(C)CC (centres undefined)	1.3	-0.39
NNC(=O)c1ccccc1OCCOc1ccccc1	0.7	-0.84
Cc1cc(C)n(-c2nc(NCCCO)c3c4c(sc3n2)CCCC4)n1	1.1	1.45
Cc1[nH]c(=O)[nH]c(=O)c1/C=C/C(=O)OCC(C)C	0.8	-0.02
CCCc1nnc(NC(=O)CSc2nnc(-c3ccco3)n2C)s1	0.18	-0.05
CCOC(=O)CNC(=O)Cc1ccc(Cl)cc1	1.99	-0.48
CCCOC(=O)c1c(NC(=O)/C=C/c2cnn(C)c2C)sc(C(=O)OC)c1C	0.46	0.33
COc1ccc(NC(=O)C2CC(c3ccc(Cl)cc3)=NO2)cc1OC (centres undefined)	0.21	0.04
COC(=O)c1cccc(CSc2nc(-c3ccccc3)c(C#N)c(=O)[nH]2)c1	0.26	0.96
Cc1oc(-c2ccccc2Cl)nc1CSCC(=O)NC1CC1	0.71	0.43
